Ecoli growth – E. coli growth inhibition; Escherichia coli growth, OD600, 23 h; active compounds read low; OD600 absorbance (concentration not given with the values); actives 0.21% (n = 330,000);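 active = OD600 absorbance below the run mean of sample wells minus 3.6 SD, in any replicate, cut at about 0.56 in these data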;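 also: stock transfer was 300 nL into about 60 µL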
B2AR ag – human beta-2 adrenergic receptor agonism by FAP; P07550; Am2.2-beta2AR cells, FAP receptor internalization, flow cytometry; reference of the scale not given here; response, % (no concentration beside the values); actives 0.43% (n = 340,000); AID 504454;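 active = response above a set limit, near 3 SD of response in nonfluorescent compounds, cut at about 42% in these data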;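 also: stock transfer was 100 nL into about 11 µL; a reference agonist was the positive control; negative values mostly stem from fluorescent compounds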
Target sequence (P07550 whole entry, looked up): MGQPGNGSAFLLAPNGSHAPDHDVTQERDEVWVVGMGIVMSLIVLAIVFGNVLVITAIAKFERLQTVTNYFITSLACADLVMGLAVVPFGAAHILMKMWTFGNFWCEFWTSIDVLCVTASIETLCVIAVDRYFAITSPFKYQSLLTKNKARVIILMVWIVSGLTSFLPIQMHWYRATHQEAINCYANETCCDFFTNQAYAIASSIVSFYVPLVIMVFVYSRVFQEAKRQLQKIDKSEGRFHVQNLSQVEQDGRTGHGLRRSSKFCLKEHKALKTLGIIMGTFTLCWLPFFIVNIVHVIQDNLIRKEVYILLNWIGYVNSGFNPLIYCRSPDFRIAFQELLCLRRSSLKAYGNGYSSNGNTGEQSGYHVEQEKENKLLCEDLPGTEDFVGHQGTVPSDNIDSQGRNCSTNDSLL
LANA-H2A inh – blocks KSHV LANA binding to histone H2A/H2B; Q9QR71; cell-free LANA-H2A/H2B peptide, fluorescence polarization; inhibition, % (concentration not given with the values); actives 0.6% (n = 320,000); AID 2629; in the data active = inhibition mostly above about 10%, no sharp cut-off; inactive = mostly below about 6.7%;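 also: stock transfer was 7.5 nL into about 10 µL; 0% = median of vehicle wells and 100% = median of positive control wells; one replicate is shown; the record names a cut of 25% in any replicate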
Bfl-1 A1 inh – inhibitors of the anti-apoptotic protein A1, read as caspase activation. MEF A1-2A-BIM cells, Caspase-Glo 3/7 luminescence, 3 h; percent of clofoctol response, vehicle zero. actives 0.066% (n = 330,000). AID 2462. caspase activation, % (concentration not given with the values);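 active = over half of replicate activation scores above 10%, or exactly half above 10 with the replicate mean above 10; inconclusive = replicate mean below 10 yet half the replicates above 10; inactive = over half of replicates below 10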;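 also: wells of about 30 µL received 50 nL stock; many hits fall short of the cut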
Vif A3G – HIV-1 Vif–A3G interaction blockers – biochemical, TR-FRET, GST-Vif 1-94, biotin-A3G peptide, dose response retest, primary screen (AID 1117319). actives 0.57% (n = 260,000). one-dose inhibition, %; IC50 in µM for titrated hits. TR-FRET GST-Vif / biotin-A3G peptide binding; higher % means a stronger effect; test concentration not given here; strong numbers were not always called active;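 active = above the screen mean plus three standard deviations and confirmed in dose response; inconclusive = results disagree or hit not tested in dose response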;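 also: Vif residues 1-94 fused to GST binding biotinylated APOBEC3G peptide 110-148; 0% = full assay without inhibitor and 100% = GST in place of GST-Vif; retest series ran down from 100 µM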
HNF4A DNA FP – change in binding of human HNF4 alpha to DNA; P41235; HNF4a-FITC DNA binding, fluorescence polarization, 1 h; activity change, % at 10 µM; actives 0.3% (n = 360,000); in the data active = activity change above about 30%, passing the limit was not always enough;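 also: controls were the assay level and a saturating level of protein; the project sought stronger binding though the title names inhibitors; some compounds called inactive have numbers as strong as hits; positive values seem to mean higher polarization but the record does not say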
Target sequence (P41235 whole entry, looked up): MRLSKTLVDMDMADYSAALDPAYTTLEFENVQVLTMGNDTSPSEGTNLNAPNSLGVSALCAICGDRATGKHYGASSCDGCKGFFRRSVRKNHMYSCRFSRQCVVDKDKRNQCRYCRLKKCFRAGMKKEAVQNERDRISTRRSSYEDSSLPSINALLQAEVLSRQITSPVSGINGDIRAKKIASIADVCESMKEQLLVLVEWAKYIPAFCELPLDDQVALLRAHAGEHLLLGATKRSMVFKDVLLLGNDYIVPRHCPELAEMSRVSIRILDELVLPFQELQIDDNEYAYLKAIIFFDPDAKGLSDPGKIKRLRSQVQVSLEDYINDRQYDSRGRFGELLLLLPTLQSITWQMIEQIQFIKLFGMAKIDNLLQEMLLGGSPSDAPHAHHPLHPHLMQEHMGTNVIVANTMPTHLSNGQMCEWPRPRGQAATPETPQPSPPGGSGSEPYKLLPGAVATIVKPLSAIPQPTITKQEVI
UCH37 inh – human UCH37 deubiquitinating enzyme inhibition. AID 588478. inhibition, % (no concentration beside the values). actives 0.33% (n = 330,000). purified proteasome/UCH37, Ub-AMC cleavage fluorescence. Q9Y5K5;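 active = mean of two replicates above 20%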;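 also: 0% = compound-free wells with enzyme and 100% = wells lacking proteasome; stock transfer was 100 nL into about 20 µL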
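Material: Human UCH37 enzyme supplied as purified proteasome complex | Schedule: 30 min preincubation with enzyme, 25 min cleavage at room temperature | Detection: AMC fluorescence 355/460 nm | Measure: % inhibition of Ub-AMC cleavage fluorescence | Controls: Wells without proteasome as full block, compound-free enzyme plus substrate as uninhibited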
Numbers without * were called inactive; i = inactive; ? = inconclusive; nt = no result given; & = joins results of further samples.

1) CCN1CCCC1CNC(=O)CCNC(=O)c1cc(OC)c(OC)c(OC)c1 (stereo not drawn)
2) Nn1c(Nc2ccccc2)nc2sc3c(c2c1=O)CCC3
3) CN(C)c1nnnn1-c1ccc(Oc2ccccc2)cc1
4) CC1(C)CC(N2CN(C3CCCCC3)CC2=O)CC(C)(C)N1
5) Cc1cc(=O)n(CCCO)c(O)c1C#N
6) COc1ccc2cc(OCC(=O)NNC(=O)Nc3ccc(OC)c(OC)c3)ccc2c1
7) CN(CC(=O)NC(=O)NC(C)(C)C)CC(=O)Nc1ccccc1Cl
8) CN1C(=O)C(CC(=O)NCCc2ccccc2)N(NC(=O)c2ccc(Cl)cc2)C1=S (stereo not drawn)
9) CC(C)(C)c1cc2cccnc2n1Cc1cccc(Cl)c1
10) Cc1nc(C)c(C(=O)Nc2ccccc2-c2ccccc2)o1

| assay / entry | 1 | 2 | 3 | 4 | 5 | 6 | 7 | 8 | 9 | 10 |
| --- | --- | --- | --- | --- | --- | --- | --- | --- | --- | --- |
| Ecoli growth | 0.67 | 0.74 | 0.68 | 0.67 | 0.78 | 0.73 | 0.65 | 0.65 | 0.65 | 0.73 |
| B2AR ag | 3 | 5 | -21 | -1 | -3 | -4 | 3 | 0 | -1 | 6 |
| LANA-H2A inh | 1.2 | nt | -4.7 | 2.5 | -1.5 | 2.3 | 3.2 | -4.8 | 4.4 | -12 |
| Bfl-1 A1 inh | 0.0 | nt | 0.1 | -0.3 | 0.4 | 0.2 | 1.0 | 0.7 | -0.1 | -0.2 |
| Vif A3G | -7%&-2% | 12% | ? | 2% | 12% | -1% | nt | nt | 8% | 30% |
| HNF4A DNA FP | -1.4 | -0.8 | 1.2 | -1.0 | 2.3 | -0.7 | 4.8 | -3.0 | -0.1 | -0.6 |
| UCH37 inh | 4.7 | -4.6 | 2.4 | 0.5 | -1.7 | -2.0 | 0.0 | 5.8 | -0.9 | 5.1 |

Results in LANA-H2A inh, Ecoli growth and Vif A3G, for some of the entries so far:
cpd | Compound | LANA-H2A inh | Ecoli growth | Vif A3G
1 | CCN1CCCC1CNC(=O)CCNC(=O)c1cc(OC)c(OC)c(OC)c1 (stereo not drawn) | 1.2 | 0.67 | -7%&-2%
3 | CN(C)c1nnnn1-c1ccc(Oc2ccccc2)cc1 | -4.7 | 0.68 | ?

Look-ups from the entries so far:
Result for #6 under B2AR ag: -4
Result for #4 under B2AR ag: -1

The list continues.
11) Cc1ccc(-c2cc(C(=O)Nc3cnn(C45CC6CC(CC(C6)C4)C5)c3)no2)cc1
12) COc1cc(C(=O)NCC(c2cccs2)N2CCOCC2)c([N+](=O)[O-])cc1OC (stereo not drawn)
13) Cc1ccc(NC(Cc2cc(C)no2)c2ccccc2)cc1 (stereo not drawn)
14) COc1ccc(/C=C/C(=O)N2CCCC2)cc1OC
15) CCCc1cc(=O)oc2cc(OCC(=O)NCCc3ccc(S(N)(=O)=O)cc3)ccc12
16) CCOC(=O)c1c(NC(=O)CN2CCCc3ccccc32)sc(C)c1CC
17) CC1(C)Cc2c(C#N)c(N)n(-c3ccccc3)c(=O)c2CO1
18) Cc1sc(NC(=S)NC(=O)c2ccc(C(C)(C)C)cc2)c(C#N)c1C
19) C[C@H](CO)N1C[C@H](C)[C@@H](CN(C)C(=O)NC2CCCCC2)Oc2c(NC(=O)Nc3ccccc3)cccc2C1=O
20) COc1c(Cl)cc(Cl)cc1CNCCNCCO

| assay / entry | 11 | 12 | 13 | 14 | 15 | 16 | 17 | 18 | 19 | 20 |
| --- | --- | --- | --- | --- | --- | --- | --- | --- | --- | --- |
| Ecoli growth | 0.76 | 0.65 | 0.7 | 0.71 | 0.7 | 0.65 | 0.72 | 0.69 | 0.78 | 0.68 |
| B2AR ag | 4 | 9 | 7 | -3 | -25 | 12 | -7 | 5 | 2 | 14 |
| LANA-H2A inh | -1.7 | -9.2 | nt | 0.4 | -1.2 | -8.7 | 0.5 | -3.8 | -12 | -2.0 |
| Bfl-1 A1 inh | -1.6 | 0.4 | 0.6 | -0.3 | 0.4 | 0.7 | 0.8 | 1.5 | 1.4 | 1.0 |
| Vif A3G | -4% | -2% | nt | 1% | -2% | nt | 13% | 12% | nt | 4% |
| HNF4A DNA FP | -3.9 | 5.4 | 0.9 | -0.4 | 0.4 | 8.5 | -1.4 | 4.9 | 1.3 | 2.8 |
| UCH37 inh | 1.7 | 2.6 | 0.7 | -13 | -20 | 1.1 | 3.2 | 2.8 | 3.3 | 3.5 |

Ordered by molecular weight (lowest first): four of the compounds above.
14) COc1ccc(/C=C/C(=O)N2CCCC2)cc1OC
13) Cc1ccc(NC(Cc2cc(C)no2)c2ccccc2)cc1 (stereo not drawn)
20) COc1c(Cl)cc(Cl)cc1CNCCNCCO
15) CCCc1cc(=O)oc2cc(OCC(=O)NCCc3ccc(S(N)(=O)=O)cc3)ccc12

| assay / entry | 14 | 13 | 20 | 15 |
| --- | --- | --- | --- | --- |
| Ecoli growth | 0.71 | 0.7 | 0.68 | 0.7 |
| B2AR ag | -3 | 7 | 14 | -25 |
| LANA-H2A inh | 0.4 | nt | -2.0 | -1.2 |
| Bfl-1 A1 inh | -0.3 | 0.6 | 1.0 | 0.4 |
| Vif A3G | 1% | nt | 4% | -2% |
| HNF4A DNA FP | -0.4 | 0.9 | 2.8 | 0.4 |
| UCH37 inh | -13 | 0.7 | 3.5 | -20 |

4 compounds drawn at random from the list so far, as already listed:
14) COc1ccc(/C=C/C(=O)N2CCCC2)cc1OC
15) CCCc1cc(=O)oc2cc(OCC(=O)NCCc3ccc(S(N)(=O)=O)cc3)ccc12
11) Cc1ccc(-c2cc(C(=O)Nc3cnn(C45CC6CC(CC(C6)C4)C5)c3)no2)cc1
13) Cc1ccc(NC(Cc2cc(C)no2)c2ccccc2)cc1 (stereo not drawn)

| assay / entry | 14 | 15 | 11 | 13 |
| --- | --- | --- | --- | --- |
| Ecoli growth | 0.71 | 0.7 | 0.76 | 0.7 |
| B2AR ag | -3 | -25 | 4 | 7 |
| LANA-H2A inh | 0.4 | -1.2 | -1.7 | nt |
| Bfl-1 A1 inh | -0.3 | 0.4 | -1.6 | 0.6 |
| Vif A3G | 1% | -2% | -4% | nt |
| HNF4A DNA FP | -0.4 | 0.4 | -3.9 | 0.9 |
| UCH37 inh | -13 | -20 | 1.7 | 0.7 |

Following part
21) COc1ccc(NC(=O)C2CCC(C)(C(=O)O)C2(C)C)cc1 (stereo not drawn)
22) C[C@H]1CN=C(Nc2ccccc2)N1CCc1ccc(F)cc1
23) CC(C)(O)[C@H]1Cc2cc3ccc(=O)oc3cc2O1
24) CCC(C)c1nc2c(c(N3CCC3=O)c1-c1ccccc1)CCCC2 (stereo not drawn)
25) CN(C)S(=O)(=O)c1ccc(C(=O)N2CCN=C2SCc2ccccc2)cc1
26) CC(C)N(CCNS(=O)(=O)c1ccc(Cl)cc1)C(C)C
27) CC(C)[C@H](NC(=O)c1c(F)cccc1F)C(=O)Nc1cccc(Br)c1
28) CC1CCN(c2nc3c(c(=O)[nH]c(=O)n3C)n2CCSc2ncccn2)CC1
29) O=C(Nc1ccncc1)c1ccc2ccccc2c1
30) COc1cc(/C=C/C(=O)O)ccc1OS(=O)(=O)c1cc(Br)ccc1C

| assay / entry | 21 | 22 | 23 | 24 | 25 | 26 | 27 | 28 | 29 | 30 |
| --- | --- | --- | --- | --- | --- | --- | --- | --- | --- | --- |
| Ecoli growth | 0.73 | nt | 0.66 | 0.65 | 0.67 | 0.69 | 0.66 | 0.74 | 0.67 | 0.66 |
| B2AR ag | 9 | -4 | -4 | 2 | -8 | 0 | 8 | -21 | -7 | 9 |
| LANA-H2A inh | -2.0 | 1.7 | -5.1 | 1.4 | 4.8 | 3.2 | -1.5 | nt | -11 | 1.2 |
| Bfl-1 A1 inh | 1.5 | 0.2 | 0.4 | -0.1 | -0.3 | 0.2 | 2.5 | nt | -4.0 | -0.7 |
| Vif A3G | 7% | nt | 5% | nt | nt | 9% | 1% | nt | nt | 6% |
| HNF4A DNA FP | -1.0 | 3.1 | -0.7 | -0.6 | 2.1 | -4.1 | 1.7 | 0.1 | -0.6 | -1.5 |
| UCH37 inh | 3.9 | -2.8 | i | 4.3 | 0.8 | 5.8 | 2.6 | -0.7 | 4.4 | 4.1 |

31) COc1ccc(C(=O)NC(C)c2nc3ccccc3n2C)cc1OC (stereo not drawn)
32) COC(=O)C1=C(C)N(CCc2ccc(OC)c(OC)c2)C(=O)C1
33) O=C(NCc1ccccc1Cl)c1ccc[nH]1
34) Cc1ccc(C(=O)NCCCN2CCOCC2)o1
35) CCCNS(=O)(=O)c1ccc(Oc2ncc(C(F)(F)F)cc2Cl)cc1

| assay / entry | 31 | 32 | 33 | 34 | 35 |
| --- | --- | --- | --- | --- | --- |
| Ecoli growth | 0.65 | 0.72 | 0.67 | 0.74 | 0.68 |
| B2AR ag | -3 | -2 | -1 | -1 | -7 |
| LANA-H2A inh | -4.3 | -0.9 | 0.9 | -3.9 | 6.6 |
| Bfl-1 A1 inh | 1.3 | 0.0 | -0.4 | -0.6 | -0.3 |
| Vif A3G | -6% | 12% | -4% | 10% | -7% |
| HNF4A DNA FP | 1.6 | -0.6 | -2.5 | -2.5 | -0.7 |
| UCH37 inh | 3.0 | 1.3 | 4.6 | 3.2 | 2.0 |

Source: PubChem (several laboratories)
